NOMO-1 viab – NOMO-1 AML cell viability reduction, primary screen, STK33 inhibitor project, CellTiter-Glo luminescence. NOMO-1 AML viability, 72 h. inhibition, % (test concentration not listed). 37,000 tested, 7.5% active;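 active means most replicates above 80%; inconclusive means exactly half above 80%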;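 further: wells of about 30 µL received 25 nL stock; 0% = median of vehicle wells and 100% = reference inhibitor level; the first replicate is given; inactives centre near 10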
* hit, by the source's call; ? = inconclusive.

Start of the data: the first six entries, ahead of the listing:
SMILES	NOMO-1 viab
C[C@H]1CN([C@@H](C)CO)C(=O)c2cc(NC(=O)C3CCCCC3)ccc2O[C@@H]1CN(C)Cc1ccc(C(F)(F)F)cc1	46
CC(=O)Nc1cccc(NC(=O)CSc2ccccc2[N+](=O)[O-])c1	1
C[C@@H]1CN([C@@H](C)CO)C(=O)c2cc(NS(=O)(=O)c3cn(C)cn3)ccc2O[C@H]1CN(C)Cc1ccc(-c2ccccc2)cc1	9
C[C@H](CO)N1C[C@H](C)[C@H](CN(C)C(=O)Nc2ccc3c(c2)OCO3)Oc2ccc(NC(=O)CCCN(C)C)cc2C1=O	-19
C[C@@H]1CN([C@H](C)CO)C(=O)c2cccc(NC(=O)C3CCOCC3)c2O[C@H]1CN(C)C(=O)Nc1cccc2ccccc12	-15
C[C@@H]1CN([C@H](C)CO)C(=O)c2cc(NC(=O)CCCN(C)C)ccc2O[C@@H]1CN(C)C(=O)Nc1ccc2c(c1)OCO2	7

All compounds of this part, from the first entry:
SMILES	NOMO-1 viab
C[C@H]1CN([C@@H](C)CO)C(=O)c2cc(NC(=O)C3CCCCC3)ccc2O[C@@H]1CN(C)Cc1ccc(C(F)(F)F)cc1	46
CC(=O)Nc1cccc(NC(=O)CSc2ccccc2[N+](=O)[O-])c1	1
C[C@@H]1CN([C@@H](C)CO)C(=O)c2cc(NS(=O)(=O)c3cn(C)cn3)ccc2O[C@H]1CN(C)Cc1ccc(-c2ccccc2)cc1	9
C[C@H](CO)N1C[C@H](C)[C@H](CN(C)C(=O)Nc2ccc3c(c2)OCO3)Oc2ccc(NC(=O)CCCN(C)C)cc2C1=O	-19
C[C@@H]1CN([C@H](C)CO)C(=O)c2cccc(NC(=O)C3CCOCC3)c2O[C@H]1CN(C)C(=O)Nc1cccc2ccccc12	-15
C[C@@H]1CN([C@H](C)CO)C(=O)c2cc(NC(=O)CCCN(C)C)ccc2O[C@@H]1CN(C)C(=O)Nc1ccc2c(c1)OCO2	7
CC(=O)c1cccc(NC(=O)CSc2nnc(-c3ccccc3Cl)n2-c2ccccc2)c1	35
C=CCN=C1SC(C)(C)C(=O)N1S(=O)(=O)c1ccc(C)cc1	-1
Cc1cc2cc(O)cc(O)c2c(=O)o1	-3
C[C@@H]1CN([C@H](C)CO)C(=O)c2cc(N(C)C)ccc2O[C@H]1CN(C)C(=O)Nc1cccc2ccccc12	4
COc1ccc(CCNC(=S)NC2CC2)cc1OC	11
Cc1sc2ncnc(Nc3cccc(C(=O)O)c3)c2c1C	4
Cc1cccc(NC(=O)C(Cc2ccc([N+](=O)[O-])cc2)N2C(=O)c3ccccc3C2=O)c1 (stereo unspecified)	1
c1coc(CNc2nc3ccccc3n2CCN2CCCCC2)c1	4
Cc1ccc(S(=O)(=O)Nc2ccc3c(c2)C(=O)N([C@H](C)CO)C[C@H](C)[C@H](CN(C)Cc2ccccc2)O3)cc1	25
COc1ccc2cc(C(=O)NC(C)=O)c(=Nc3ccccc3)oc2c1	4
C[C@H](CO)N1C[C@H](C)[C@H](CN(C)S(=O)(=O)c2ccccc2)Oc2c(NC(=O)c3cnccn3)cccc2C1=O	16
COc1ccc(NC(=O)Nc2ccc3c(c2)CC(=O)N([C@@H](C)CO)C[C@@H](C)[C@@H](CN(C)C(=O)Nc2ccc4c(c2)OCO4)O3)cc1	9
Cc1cc(CNC(=O)c2cc(-c3ccccc3)nc3ccccc23)nn1C	-11
COc1ccc(Cl)cc1NC(=S)NCc1cc(C)n(C)n1	16
COc1ccc(S(=O)(=O)Nc2ccc3c(c2)CC(=O)N([C@H](C)CO)C[C@H](C)[C@H](CN(C)S(=O)(=O)c2ccccc2)O3)cc1	-6
CC(C)(Oc1ccc(Cl)cc1)C(=O)NCc1ccccn1	31
O=C(COc1ccc(Cl)cc1Cl)Nc1ncccn1	9
C[C@H](CO)N1C[C@H](C)[C@@H](CN(C)CC2CCCCC2)Oc2c(NS(=O)(=O)c3ccccc3)cccc2C1=O	15
Cc1ccc(C(=O)Oc2ccc(C(=O)CSc3nc4ccccc4o3)cc2)cc1	?
C[C@@H]1CN([C@@H](C)CO)C(=O)c2cccc(NS(=O)(=O)c3ccc(F)cc3)c2O[C@@H]1CN(C)Cc1ccc2c(c1)OCO2	1
OCc1nc2ccccc2n1CCCOc1ccc(Br)cc1	59
C[C@H](CO)N1C[C@H](C)[C@@H](CN(C)Cc2ccc3c(c2)OCO3)Oc2ccc(N(C)C)cc2C1=O	12
CC(=O)Nc1ccccc1NC(=O)COc1cc(Cl)c(Cl)cc1Cl	34
O=C(CCc1ccccc1)c1c(O)cc(O)cc1O	-8
Cc1cc(I)cc(C)c1NC(=O)CSc1n[nH]c(-c2ccc(Cl)cc2)n1	23
C[C@@H]1CN([C@H](C)CO)C(=O)c2cccc(NS(=O)(=O)c3ccccc3)c2O[C@@H]1CN(C)S(C)(=O)=O	-5
COc1ccc(-c2coc3c(OC)c(OC)cc(OC4OC(CO)C(O)C(O)C4OC4OCC(O)C(O)C4O)c3c2=O)cc1 (stereo unspecified)	13
CC(C)NC(=O)Nc1ccc2c(c1)CC(=O)N([C@@H](C)CO)C[C@H](C)[C@@H](CN(C)Cc1ccc3c(c1)OCO3)O2	8
Cc1cc(NC(=O)NCCCN2CCN(C3CCCCC3)CC2)ccc1Cl	-4
Cc1c(Br)ccc(NC(=O)CSc2nnc(-c3ccccc3)n2-c2ccccc2)c1C	11
C[C@H]1CN([C@@H](C)CO)C(=O)c2cccc(NC(=O)Nc3ccc(F)cc3)c2O[C@@H]1CN(C)C(=O)Nc1ccc2c(c1)OCO2	6
O=C(CSc1nc2ccccc2[nH]1)Nc1cccc(Cl)c1	7
C[C@@H]1CN([C@H](C)CO)C(=O)Cc2cc(NC(=O)CCC(F)(F)F)ccc2O[C@H]1CN(C)S(C)(=O)=O	-9
COc1ccc(S(=O)(=O)N(C)C[C@@H]2Oc3c(NC(=O)C4CCOCC4)cccc3C(=O)N([C@@H](C)CO)C[C@@H]2C)cc1	24
Cc1ccc(CCC(=O)Nc2cc(C(F)(F)F)ccc2Cl)o1	-3
Cc1noc(C)c1S(=O)(=O)N(C)C[C@@H]1Oc2c(NC(=O)C3CCCCC3)cccc2C(=O)N([C@@H](C)CO)C[C@@H]1C	-7
Cn1c(SCC(=O)Nc2ccccc2F)nnc1-c1ccc(Br)cc1	3
CC(=O)C1=C(C)N(Cc2ccco2)C(=O)C1(NC(=O)C1CCCCC1)C(F)(F)F (stereo unspecified)	6
Cc1ccc(S(=O)(=O)Nc2ccc3c(c2)C(=O)N([C@@H](C)CO)C[C@@H](C)[C@H](CN(C)Cc2ccccc2)O3)cc1	19

Retrieved by compound from above (4):
SMILES	NOMO-1 viab
Cc1cc(I)cc(C)c1NC(=O)CSc1n[nH]c(-c2ccc(Cl)cc2)n1	23
CC(C)NC(=O)Nc1ccc2c(c1)CC(=O)N([C@@H](C)CO)C[C@H](C)[C@@H](CN(C)Cc1ccc3c(c1)OCO3)O2	8
COc1ccc(-c2coc3c(OC)c(OC)cc(OC4OC(CO)C(O)C(O)C4OC4OCC(O)C(O)C4O)c3c2=O)cc1 (stereo unspecified)	13
Cc1cc(NC(=O)NCCCN2CCN(C3CCCCC3)CC2)ccc1Cl	-4

Other entries.
SMILES	NOMO-1 viab
Cc1ccc(Oc2ccccc2)c(NC(=O)c2ccccc2)c1	38
NC(=O)c1ccccc1NCC(=O)c1ccc(F)cc1	73
Cc1cc(C(=O)CSc2ncnc3sc4c(c23)CCCC4)c(C)n1Cc1ccco1	30
CCc1ccc(-c2nc3cc(NC(=O)COc4ccc([N+](=O)[O-])cc4)ccc3o2)cc1	-21
C[C@@H]1CN([C@H](C)CO)C(=O)c2cccc(NC(=O)NC3CCCCC3)c2O[C@H]1CN(C)Cc1ccccc1	115*
O=C(COc1ccc(I)cc1)Nc1cc(C(=O)O)cc(C(=O)O)c1	-9
COc1ccc(CN(C)C[C@@H]2Oc3c(NC(=O)Nc4ccc(C(F)(F)F)cc4)cccc3C(=O)N([C@@H](C)CO)C[C@H]2C)cc1	116*
Cc1noc(C)c1NC(=O)Nc1cccc2c1O[C@H](CN(C)S(=O)(=O)c1ccc(F)cc1)[C@H](C)CN([C@H](C)CO)C2=O	-3
Cc1ccccc1NC(=O)CN(c1ccc(Cl)c(Cl)c1)S(C)(=O)=O	26
COc1ccc(CN(C)C[C@@H]2OCCCC[C@@H](C)Oc3ccc(NS(=O)(=O)c4ccc(F)cc4)cc3C(=O)N([C@H](C)CO)C[C@@H]2C)cc1	38
COc1ccc(Nc2nc(NC(C)(C)C)nc(OC)n2)c(OC)c1	-8
CC(=O)Nc1nc(C2CC2)cc(-c2ccccc2)c1C#N	29
COc1ccc(NC(=O)N(C)C[C@@H]2Oc3c(NC(=O)C4CCOCC4)cccc3C(=O)N([C@H](C)CO)C[C@@H]2C)cc1	6
C[C@H]1CN([C@@H](C)CO)C(=O)Cc2cc(NC(=O)Cc3ccccc3)ccc2O[C@@H]1CN(C)S(=O)(=O)c1ccc(F)cc1	-5
CC(C)NC(=O)N(C)C[C@H]1Oc2c(NC(=O)Nc3ccc(C(F)(F)F)cc3)cccc2C(=O)N([C@@H](C)CO)C[C@H]1C	121*
CCOC(=O)Nc1cccc(NC(=O)CC2c3ccccc3Oc3ccccc32)c1	72
Cc1cc(C(=O)Nc2cccc3c2O[C@@H](CN(C)Cc2ccc(-c4ccccc4)cc2)[C@H](C)CN([C@@H](C)CO)C3=O)n(C)n1	46
Cc1noc(C)c1NC(=O)N(C)C[C@@H]1Oc2ccc(NS(=O)(=O)c3cn(C)cn3)cc2CC(=O)N([C@@H](C)CO)C[C@@H]1C	8
COc1ccc(S(=O)(=O)Nc2ccc3c(c2)C(=O)N([C@@H](C)CO)C[C@H](C)[C@H](CN(C)S(=O)(=O)c2ccc(F)cc2)O3)cc1	36
C[C@H](CO)N1C[C@H](C)[C@@H](CN(C)Cc2ccc(Oc3ccccc3)cc2)Oc2ccc(N(C)C)cc2C1=O	7
CCOc1ccccc1NC(=S)NCc1ccco1	16
COc1ccc(Cl)cc1NC(=O)COc1ccccc1[N+](=O)[O-]	21
O=C(CNS(=O)(=O)c1cc(Cl)ccc1Cl)Nc1ccc(Br)cc1F	19
C[C@@H]1CN([C@H](C)CO)C(=O)c2cc(NC(=O)CCN3CCOCC3)ccc2O[C@@H]1CN(C)S(=O)(=O)c1cn(C)cn1	10
Cc1sc2ncnc(SCC(=O)Nc3nsc(-c4ccccc4)n3)c2c1C	?
Cc1noc(C)c1NC(=O)Nc1ccc2c(c1)C(=O)N([C@H](C)CO)C[C@H](C)[C@@H](CN(C)S(C)(=O)=O)O2	0
Cc1ccc2c(c1)c1c(n2CC(O)Cn2nc(C)c(Br)c2C)CCCC1 (stereo unspecified)	?
C[C@@H]1CN([C@H](C)CO)C(=O)Cc2cc(NC(=O)Cc3ccccc3)ccc2O[C@H]1CN(C)Cc1ccc(C(F)(F)F)cc1	22
c1ccc2c3c([nH]c2c1)[C@H]1C2CCC([C@@H]4CCCN[C@H]24)N1CC3 (stereo partly specified)	23
C[C@H]1CN([C@@H](C)CO)C(=O)c2cccc(NC(=O)Nc3ccc(C(F)(F)F)cc3)c2O[C@@H]1CN(C)Cc1ccc(C(F)(F)F)cc1	113*
Cc1noc(C)c1NC(=O)N(C)C[C@@H]1Oc2ccc(NC(=O)NC(C)C)cc2CC(=O)N([C@@H](C)CO)C[C@@H]1C	5
Cc1noc(C)c1S(=O)(=O)Nc1cccc2c1O[C@@H](CN(C)S(C)(=O)=O)[C@@H](C)CN([C@H](C)CO)C2=O	17
C[C@H]1CN([C@@H](C)CO)C(=O)c2cc(NC(=O)Nc3ccc4c(c3)OCO4)ccc2O[C@@H]1CN(C)CC1CCCCC1	32
C/C(=C\CC[C@@H](C)[C@H]1CC[C@@]2(C)C3CC[C@H]4C(C)(C)[C@@H](OC5OC(CO)C(OC6OC(CO)C(O)C(O)C6O)C(O)C5O)CC[C@@]45C[C@@]35CC(O)[C@]12C)C(=O)O (stereo partly specified)	27
Cc1nc2ccccc2cc1C(N)=O	-30
Cc1noc(C)c1S(=O)(=O)N(C)C[C@@H]1Oc2ccc(NC(=O)NC(C)C)cc2CC(=O)N([C@@H](C)CO)C[C@@H]1C	13
C[C@H](CO)N1C[C@H](C)[C@H](CN(C)C(=O)Nc2cccc3ccccc23)Oc2ccc(NS(=O)(=O)c3ccc(F)cc3)cc2C1=O	21
Cc1noc(C)c1S(=O)(=O)N(C)C[C@@H]1Oc2c(NC(=O)c3ccc(-c4nccs4)cc3)cccc2C(=O)N([C@H](C)CO)C[C@@H]1C	6
Nc1nnc(SCC(=O)Nc2ccc3c(c2)OCCO3)s1	4
Cc1sc2nc3c4ccccc4c(NCCO)nn3c(=O)c2c1C	-11
C[C@@H]1CCCCO[C@@H](CN(C)C(=O)Nc2cccc3ccccc23)[C@@H](C)CN([C@H](C)CO)C(=O)c2cc(NS(=O)(=O)c3cccs3)ccc2O1	34
C[C@H](CO)N1C[C@H](C)[C@@H](CN(C)Cc2ccc3c(c2)OCO3)Oc2ccc(NC(=O)C3CC3)cc2C1=O	5
C[C@H]1CN([C@@H](C)CO)C(=O)c2cccc(NC(=O)C3CCOCC3)c2O[C@@H]1CN(C)Cc1ccncc1	2
COc1cc(OC)c(C(O)C(C)O)cc1OC (stereo unspecified)	90*
CCc1nc(SCC(=O)Nc2cccc(Cl)c2)n[nH]1	-20
COc1cccc(S(=O)(=O)Nc2ccc(C(=O)Nc3ccc4c(c3)OCCO4)cc2)c1	-15
C[C@H](CO)N1C[C@H](C)[C@H](CN(C)Cc2ccc(Cl)c(Cl)c2)Oc2c(NS(=O)(=O)c3ccccc3)cccc2C1=O	?
C[C@H]1CN([C@@H](C)CO)C(=O)c2cc(NS(=O)(=O)c3ccc(Cl)cc3)ccc2O[C@@H]1CN(C)Cc1ccc2c(c1)OCO2	11
COc1ccc(CN(C)C[C@H]2Oc3ccc(NC(=O)Nc4ccc(C(F)(F)F)cc4)cc3CC(=O)N([C@@H](C)CO)C[C@H]2C)cc1	124*

High-throughput results: PubChem, Broad Institute

Not all compounds are listed (hit frequency here may not be typical).
